Screening results: PubChem, National Center for Advancing Translational Sciences (NCATS)
StopGo reporter: FMDV 2A StopGo reporter, luciferase signal; human cells with a luciferase reporter of 2A StopGo recoding; control for the full effect not named in the record; Potency, µM (titrated, usually from 57.9 µM), for inactives: at the highest dose signal change, negative = less light; 410,000 compounds, 1.2% hits; active = well fitted falling curve with a large enough effect; inconclusive = small, poorly fitted or top-dose-only effect; inactive = no such curve, though single readings can be large or run the other way; tested in HEK293T cells; also: nearly all actives have a fitted effect of over 45% in size; luciferase light after 4 h
RE007 growth inh: less growth of the S. pombe RE007 Vpr strain; S. pombe RE007 Vpr strain, BacTiter-Glo ATP luminescence, 24 h; control for the full effect not named in the record; Potency, µM (titrated, usually from 92.2 µM), without a hit: at the top dose activity change, negative = less growth; 360,000 compounds, 0.21% hits; active = well fitted falling curve with a large enough effect; inconclusive = small, poorly fitted or top-dose-only effect; inactive = no such curve, though single readings can be large or run the other way;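 also: nearly all actives have a fitted effect of over 50% in size; the assay follows cell death caused by Vpr and the record does not say whether a fall means rescue or toxicity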
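Fission yeast strain RE007, carrying one chromosomally integrated HIV-1 vpr copy, was seeded at OD 0.01 in PMG+AL medium with 23 nL pinned compound. After 24 h at 30 °C and 99% humidity, viability was read by BacTiter-Glo luminescence.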
Starred values were filed as active, the others as inactive; ? = inconclusive; [ ] = another dose, or the depositor's remark. % is scaled to controls: 0 for no effect and ±100 for the full control effect; potency is read from the fitted curve at half-maximal effect. This is a subset; rates above refer to the full screens.

1) CCCCNC(=O)C1(C)CCCCN1C(=O)c1ccc(F)c(C)c1 (configuration not stated)
  StopGo reporter: -13.5%; RE007 growth inh: -14.9%
2) COc1cc(O)cc2c1[C@@H]1Oc3c(ccc(O)c3CC=C(C)C)[C@@H]1CO2
  StopGo reporter: 0.0%; RE007 growth inh: 1.6%
3) CCCCN(C(=O)COC(=O)c1sccc1C)c1c(N)n(CCC)c(=O)[nH]c1=O
  StopGo reporter: -10.1%; RE007 growth inh: -5.3%
4) CC(=O)Nc1cccc(-c2ccnc3c2CC(C)(C(=O)Nc2ccc(Cl)c(C(F)(F)F)c2)O3)c1 (configuration not stated)
  StopGo reporter: ?; RE007 growth inh: 1.3%[18.4 µM]
5) CCCNC(=O)C1(CC2CC(c3ccccc3)=NO2)CCNCC1 (configuration not stated)
  StopGo reporter: -6.0%; RE007 growth inh: 4.9%
6) Cc1ccc2nc(-c3ccccc3)c(Cc3ccccc3C(F)(F)F)n2c1
  StopGo reporter: 30.4%[activator]; RE007 growth inh: ?
7) COc1ccc(N2CCN(C(=O)C(=O)c3cc(OC)c(OC)c(OC)c3)CC2)cc1
  StopGo reporter: -3.9%; RE007 growth inh: -0.8%
8) O=C(Nc1c(Cl)cccc1Cl)Oc1cccc2cccnc12
  StopGo reporter: -9.2%; RE007 growth inh: 16.5%[18.4 µM]
9) O=C(NCc1ccc(F)cc1)c1cc(C2CCCCN2C(=O)c2ccccc2)on1 (configuration not stated)
  StopGo reporter: -27.9%; RE007 growth inh: 0.4%
10) COc1ccc(-c2cc(C(=O)Nc3ccc(OC)c(OC)c3)[nH]n2)c(C)c1
  StopGo reporter: 20.6%; RE007 growth inh: 20.7%
11) Cc1ccc(NC(=O)C2(C)CCN2C(=O)c2ccccc2CCc2ccccc2)cc1C (configuration not stated)
  StopGo reporter: ?; RE007 growth inh: 3.0%
12) C[C@H]1CN([C@@H](C)CO)C(=O)c2cc(-c3cccc(F)c3)cnc2O[C@@H]1CN(C)S(C)(=O)=O
  StopGo reporter: -25.7%; RE007 growth inh: -10.4%
13) Cc1ccc2nc(N)nnc2c1
  StopGo reporter: 11.2%; RE007 growth inh: -6.9%
14) CC1(C(=O)NS(=O)(=O)c2cccc(F)c2)CCN1C(=O)CCc1ccccc1 (configuration not stated)
  StopGo reporter: 1.7%; RE007 growth inh: 9.2%
15) Cc1ccc(-c2nc3ccc(Br)cn3c2CC(C)(C)C)cc1
  StopGo reporter: -20.3%; RE007 growth inh: -14.6%

An excerpt from above in order of molar mass, ascending.
13) Cc1ccc2nc(N)nnc2c1
  StopGo reporter: 11.2%; RE007 growth inh: -6.9%
5) CCCNC(=O)C1(CC2CC(c3ccccc3)=NO2)CCNCC1 (configuration not stated)
  StopGo reporter: -6.0%; RE007 growth inh: 4.9%
8) O=C(Nc1c(Cl)cccc1Cl)Oc1cccc2cccnc12
  StopGo reporter: -9.2%; RE007 growth inh: 16.5%[18.4 µM]
1) CCCCNC(=O)C1(C)CCCCN1C(=O)c1ccc(F)c(C)c1 (configuration not stated)
  StopGo reporter: -13.5%; RE007 growth inh: -14.9%
2) COc1cc(O)cc2c1[C@@H]1Oc3c(ccc(O)c3CC=C(C)C)[C@@H]1CO2
  StopGo reporter: 0.0%; RE007 growth inh: 1.6%
15) Cc1ccc(-c2nc3ccc(Br)cn3c2CC(C)(C)C)cc1
  StopGo reporter: -20.3%; RE007 growth inh: -14.6%
6) Cc1ccc2nc(-c3ccccc3)c(Cc3ccccc3C(F)(F)F)n2c1
  StopGo reporter: 30.4%[activator]; RE007 growth inh: ?
10) COc1ccc(-c2cc(C(=O)Nc3ccc(OC)c(OC)c3)[nH]n2)c(C)c1
  StopGo reporter: 20.6%; RE007 growth inh: 20.7%
14) CC1(C(=O)NS(=O)(=O)c2cccc(F)c2)CCN1C(=O)CCc1ccccc1 (configuration not stated)
  StopGo reporter: 1.7%; RE007 growth inh: 9.2%
9) O=C(NCc1ccc(F)cc1)c1cc(C2CCCCN2C(=O)c2ccccc2)on1 (configuration not stated)
  StopGo reporter: -27.9%; RE007 growth inh: 0.4%
7) COc1ccc(N2CCN(C(=O)C(=O)c3cc(OC)c(OC)c(OC)c3)CC2)cc1
  StopGo reporter: -3.9%; RE007 growth inh: -0.8%
3) CCCCN(C(=O)COC(=O)c1sccc1C)c1c(N)n(CCC)c(=O)[nH]c1=O
  StopGo reporter: -10.1%; RE007 growth inh: -5.3%
11) Cc1ccc(NC(=O)C2(C)CCN2C(=O)c2ccccc2CCc2ccccc2)cc1C (configuration not stated)
  StopGo reporter: ?; RE007 growth inh: 3.0%
4) CC(=O)Nc1cccc(-c2ccnc3c2CC(C)(C(=O)Nc2ccc(Cl)c(C(F)(F)F)c2)O3)c1 (configuration not stated)
  StopGo reporter: ?; RE007 growth inh: 1.3%[18.4 µM]

Continuation:
16) Cc1nc(C(F)(F)F)ccc1C(=O)N1CCC1(C)C(=O)NS(=O)(=O)c1ccc2c(c1)CCO2 (configuration not stated)
  StopGo reporter: -16.8%; RE007 growth inh: -4.8%[18.4 µM]
17) Clc1ccc2c(c1)-c1ccccc1C1=NCCN12
  StopGo reporter: ?; RE007 growth inh: 2.6%
18) C[C@@H]1CN([C@@H](C)CO)C(=O)c2cc(N(C)C)ccc2O[C@@H](C)CCCCO[C@@H]1CN(C)S(=O)(=O)c1cccs1
  StopGo reporter: 0.0%; RE007 growth inh: -4.3%
19) COc1cccc(CNC(=O)[C@@H]2CCCN2C(=O)[C@H]2CCCCN2)c1
  StopGo reporter: -22.0%; RE007 growth inh: -12.0%
20) Cc1cc(CNC[C@H]2O[C@@H](n3ccc(=O)[nH]c3=O)[C@H](O)[C@@H]2O)no1
  StopGo reporter: -19.5%; RE007 growth inh: 0.5%
21) CN(C)CCC1(c2ccccc2)CCN(C)C1=O (configuration not stated)
  StopGo reporter: -15.0%; RE007 growth inh: -19.0%
22) CCN(CC)C(=O)C1=C(C)N(Cc2ccc(OC)cc2)C(=O)C(CC(=O)NC(c2ccccc2)c2ccccc2)C1 (configuration not stated)
  StopGo reporter: -22.9%; RE007 growth inh: -13.6%
23) C[C@@H]1CN([C@H](C)CO)C(=O)CCCn2nncc2CO[C@H]1CN(C)C(=O)c1ccc2ccn(C)c2c1
  StopGo reporter: -1.7%; RE007 growth inh: 6.8%
24) COc1ccc(N2CCN(C(=O)c3[nH]c(C(F)(F)F)nc3-c3ccccc3)CC2)cc1
  StopGo reporter: -3.0%; RE007 growth inh: 1.6%
25) O=C(c1cccs1)N1C[C@@H](n2cc(C3CC3)nn2)[C@H](O)C[C@@H]1c1ccccc1
  StopGo reporter: -14.7%; RE007 growth inh: -1.1%
26) Cc1nc(NC(=O)c2ccccc2)sc1-c1cc(C(=O)N2CCOCC2)nn1CCO
  StopGo reporter: 8.2%; RE007 growth inh: -5.8%
27) O=C(O)c1cc(O)c2c(c1)[C@H]([C@H]1c3cc(C(=O)O)cc(O)c3C(=O)c3c(O[C@@H]4O[C@H](CO)[C@@H](O)[C@H](O)[C@H]4O)cccc31)c1cccc(OC3O[C@H](CO)[C@@H](O)[C@H](O)[C@H]3O)c1C2=O (some centres not stated)
  StopGo reporter: ?; RE007 growth inh: 21.0%[18.4 µM]
28) CCCNC(=O)C1(C)CCCN(Cc2ccc(C(F)(F)F)cc2)C1 (configuration not stated)
  StopGo reporter: -15.4%; RE007 growth inh: -13.7%[18.4 µM]
29) CCc1ccc2c(c1)NC(=O)C2(C)Cc1ccc(Cl)s1 (configuration not stated)
  StopGo reporter: -26.7%; RE007 growth inh: ?
30) CC(=O)Nc1ccc(NC(=O)C2Cc3c(-c4cccc(F)c4)ccnc3O2)cc1 (configuration not stated)
  StopGo reporter: -2.2%; RE007 growth inh: 1.6%[18.4 µM]

Full records, quoted from the list:
C[C@@H]1CN([C@H](C)CO)C(=O)CCCn2nncc2CO[C@H]1CN(C)C(=O)c1ccc2ccn(C)c2c1 across the screens: StopGo reporter: -1.7%; RE007 growth inh: 6.8%
CCc1ccc2c(c1)NC(=O)C2(C)Cc1ccc(Cl)s1 (configuration not stated) across the screens: StopGo reporter: -26.7%; RE007 growth inh: ?

Continued:
31) Cc1cc(C)c2cc(C#N)c(N3CCNCC3)nc2c1
  StopGo reporter: ?; RE007 growth inh: -18.0%
32) COc1cccc(CNC(=O)[C@@H]2CCCN2C(=O)[C@@H]2CCCN2C(=O)c2cccc(OC)c2)c1
  StopGo reporter: -25.0%; RE007 growth inh: 7.1%
33) C=C1C[C@H]2[C@@H]3C=C(C)C4=CC(=O)CC[C@]4(C)[C@H]3CC[C@]2(C)[C@@]1(OC(C)=O)C(C)=O
  StopGo reporter: ?; RE007 growth inh: 1.7%[18.4 µM]
34) CC(CC(=O)Nc1ccc2c(c1)c(=O)n(C)n2-c1ccccc1)c1ccccc1 (configuration not stated)
  StopGo reporter: 4.2%; RE007 growth inh: 5.0%
35) O=S1(=O)CC(N2CCN(Cc3ccccc3F)CC2)CN1Cc1cn(Cc2ccc(C(F)(F)F)cc2)nn1 (configuration not stated)
  StopGo reporter: -28.3%; RE007 growth inh: -22.4%
36) O=S(=O)(CCN1CCN(c2ccccc2O)CC1)c1ccc(Cl)cc1
  StopGo reporter: -28.6%; RE007 growth inh: 0.3%
37) CC1(C(=O)NS(=O)(=O)c2ccccc2)CCN1C(=O)CCc1ccc(Cl)cc1Cl (configuration not stated)
  StopGo reporter: -13.0%; RE007 growth inh: 4.7%[18.4 µM]
38) COc1ccccc1Cc1c(-c2ccccc2)nc2ccc(Cl)cn12
  StopGo reporter: 23.7%; RE007 growth inh: 10.9%
39) COc1ccc(C(C)NC(=O)C2CCN(CCOc3ccc(Cl)cc3Cl)CC2)cc1OC (configuration not stated)
  StopGo reporter: ?; RE007 growth inh: -25.8%
40) CCCC(=O)Nc1ccc(S(=O)(=O)Nc2nccs2)cc1
  StopGo reporter: 16.1%; RE007 growth inh: 4.7%
41) NC(=O)c1cccc(-c2cnc(N)c(C(=O)c3cccnc3)n2)c1
  StopGo reporter: -16.9%; RE007 growth inh: 7.9%
42) CC(=O)Nc1cccc(-c2ccnc3c2CC(C)(C(=O)Nc2cccc(C(F)(F)F)c2)O3)c1 (configuration not stated)
  StopGo reporter: ?; RE007 growth inh: -22.0%
43) CCN(CC)c1nc(C=Cc2ccc(N(C)C)cc2)c2nccnc2n1
  StopGo reporter: ?; RE007 growth inh: 6.4%
44) C#CCOCCOCCOCCNc1nc(N2CCN(C(=O)[C@H](CCCCN)n3cc(CN)nn3)CC2)nc(N2CCN(C(=O)[C@H](CCCCN)n3cc([C@@H](N)CC(N)=O)nn3)CC2)n1
  StopGo reporter: -13.6%; RE007 growth inh: -3.4%
45) FC(F)(F)c1cccc(NC2=NCCS2)c1
  StopGo reporter: -19.2%; RE007 growth inh: -1.6%

46) CCOC(=O)[C@]12CCCC=C1N(Cc1ccccc1)C(=O)[C@H](CC(=O)NCCc1ccccc1OC)C2
  StopGo reporter: -7.7%; RE007 growth inh: 1.1%
47) CC(=O)c1ccc(NC(=O)CN2CCC(NC(=O)c3ccccc3C)CC2)cc1
  StopGo reporter: 12.7%; RE007 growth inh: -7.1%
48) CCCCCNC(=O)C(c1cccc2ccccc12)n1c(=O)c(-c2ccco2)nc2ccccc21 (configuration not stated)
  StopGo reporter: 6.2%; RE007 growth inh: -2.4%
49) CC1(C(=O)NS(=O)(=O)c2ccccc2Cl)CCN1C(=O)Cc1ccccc1 (configuration not stated)
  StopGo reporter: 5.2%; RE007 growth inh: 7.1%
50) Nc1cccc(-c2cccc3nncn23)c1
  StopGo reporter: -21.3%; RE007 growth inh: 2.0%
51) O=C(CCNC(=O)C1CCN(S(=O)(=O)c2ccccc2)CC1)NCc1cccnc1
  StopGo reporter: ?; RE007 growth inh: -19.9%
52) Nc1nc(COC(=O)c2ccco2)nc(Nc2ccccc2)n1
  StopGo reporter: 79.9%[activator]; RE007 growth inh: -4.0%
53) COc1ccc(CN(C)C(=O)c2ccc(OCC(=O)Nc3cccc(C(F)(F)F)c3)c(OC)c2)cc1
  StopGo reporter: ?; RE007 growth inh: 13.7%
54) Cn1c(CCN2CCCC2)nc2cc(NS(=O)(=O)c3ccc(F)cc3)ccc21
  StopGo reporter: -23.9%; RE007 growth inh: -12.6%
55) CCCCCNC(=O)c1[nH]c(C(F)(F)F)nc1-c1ccccc1
  StopGo reporter: 0.0%; RE007 growth inh: 2.6%
56) Cc1cccc(CN(Nc2ccccc2)c2ccccc2)n1
  StopGo reporter: -7.1%; RE007 growth inh: -27.5%
